# CSC inhib: blocks cancer stem cells | cancer stem cell-like cells viability, luminescence | 300,000 compounds, 1.1% hits | inhibition, % at 7.5 µM;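 active means mean at 75% or more and at least half the replicates too; tested in HMLE shEcad cells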;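 further: 0% = median of negative and 100% = median of positive control wells; the first replicate is given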
# PABP FP inh: blocks human PABP binding to poly(A) RNA. P11940. fluorescence polarization. inhibition, % at 35 µM. 290,000 compounds, 1% hits. AID 2014;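 active means 50% or more with normal probe brightness, or confirmed in later tests; about a fifth of its hits are not listed in these tables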;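 further: calls also rest on retests at 20 µM and on dose response follow-up; controls were probe without protein and protein plus probe with vehicle; some compounds called inactive have numbers as strong as hits; many hits fall short of the cut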
# Target sequence (P11940 whole entry, looked up): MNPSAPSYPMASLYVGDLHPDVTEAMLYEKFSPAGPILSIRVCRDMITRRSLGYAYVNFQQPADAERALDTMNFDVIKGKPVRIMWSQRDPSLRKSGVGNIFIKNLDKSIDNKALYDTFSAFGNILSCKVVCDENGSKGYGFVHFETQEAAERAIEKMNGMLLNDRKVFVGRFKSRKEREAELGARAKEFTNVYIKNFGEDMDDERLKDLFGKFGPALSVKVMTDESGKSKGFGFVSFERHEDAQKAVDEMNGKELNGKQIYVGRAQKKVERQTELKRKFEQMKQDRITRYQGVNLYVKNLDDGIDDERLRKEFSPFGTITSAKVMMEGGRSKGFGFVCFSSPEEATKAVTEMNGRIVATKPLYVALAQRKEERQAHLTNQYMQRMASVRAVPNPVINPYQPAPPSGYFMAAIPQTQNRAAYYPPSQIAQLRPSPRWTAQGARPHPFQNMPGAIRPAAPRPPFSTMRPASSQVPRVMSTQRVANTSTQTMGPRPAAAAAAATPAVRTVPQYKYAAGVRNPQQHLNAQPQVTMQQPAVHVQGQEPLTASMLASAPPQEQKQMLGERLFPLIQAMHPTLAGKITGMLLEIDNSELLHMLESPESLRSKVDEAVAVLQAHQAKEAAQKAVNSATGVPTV
# MT1-MMP act inh: blocks activation of human MT1-MMP; P50281; HT1080 RFP-PRO-GFP cells, GFP/RFP ratio fluorescence, overnight; percent of plate control window, DMSO zero; GFP/RFP ratio change, % at 20 µM; 360,000 compounds, 0.061% hits;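 active means GFP/RFP ratio change of at least 30% with cell ATP level not reduced by more than half and red fluorescence within 50% of control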; further: strong numbers were not always called active
#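 Assay system: RFP-PRO-GFP reporter HT1080 cells; read-out basis: GFP/RFP fluorescence ratio; benchmarks: DMSO wells and RFP-L50D-GFP cells; doses: 20 µM single dose, 1% DMSO; schedule: overnight cell settling, then overnight compound exposure, 37 °C, 5% CO2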
# HIV Env fusion: blocks HIV Env-driven cell-cell fusion. inhibition, % at 12.3 µM. HeLa-JRFL Env/CEM21 cell fusion, luciferase. 360,000 compounds, 1.1% hits;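 active means mean replicate inhibition score of at least 50 and every replicate individually at or above 50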;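 further: 0% = plate neutral controls and 100% = maraviroc near 300 nM; one replicate is shown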
# Rce1 inhib: blocks yeast Ras-converting enzyme. calls only. Q03530. AID 2563. yeast membranes, quenched prenylated peptide cleavage fluorescence. 290,000 compounds, 0.27% hits;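 active means fall in fluorescence gain of 50% or more versus controls, with final raw signal at or below 3038400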;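 further: plate controls were neutral control wells for no effect and wells lacking membranes for full effect; tested at 10 µM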
# Target sequence (Q03530 whole entry, looked up): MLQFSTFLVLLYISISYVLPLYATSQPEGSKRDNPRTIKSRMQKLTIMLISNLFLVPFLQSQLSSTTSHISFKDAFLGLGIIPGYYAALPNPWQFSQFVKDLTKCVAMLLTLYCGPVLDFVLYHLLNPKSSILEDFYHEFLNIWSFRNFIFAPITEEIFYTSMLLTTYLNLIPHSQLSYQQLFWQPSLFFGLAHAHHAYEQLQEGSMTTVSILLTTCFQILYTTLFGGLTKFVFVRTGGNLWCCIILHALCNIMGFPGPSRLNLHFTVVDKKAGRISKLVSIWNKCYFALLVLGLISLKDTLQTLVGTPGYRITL
# Yeast UUG start: alters start codon recognition fidelity in yeast; S. cerevisiae UUG-firefly luciferase reporter, luminescence/redox ratio; activity score, % at 18.7 µM; 350,000 compounds, 0.13% hits; AID 602363;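 active means replicate mean at a twofold rise or more, about +100% in these data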;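 further: firefly luciferase made from a UUG start codon reports start codon fidelity; reporter light over untreated wells divided by growth signal over untreated wells; some hits fall short of that in this replicate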
# eIF4H inh: inhibitors of RNA binding by human eIF4H | eIF4H fluorescence polarization binding assay | inhibition, % at 35 µM | 290,000 compounds, 0.94% hits;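 active means 50% or more with normal probe brightness, or confirmed in later tests; about a fifth of its hits are not listed in these tables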;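 further: calls also rest on retests at 20 µM and on dose response follow-up; 0% = protein and probe with vehicle and 100% = probe without protein; strong numbers were not always called active; many hits fall short of the cut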
# MT1-MMP act inh RFP: further read-out of MT1-MMP act inh, marked with its call; RFP signal change, %; measured here: RFP expression control read;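 0 = vehicle wells; hits needed this value within 50% of zero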
# Active calls of the source: *; i = inactive; . = not tested or not shown.
SMILES,CSC inhib,PABP FP inh,MT1-MMP act inh,MT1-MMP act inh RFP,HIV Env fusion,Rce1 inhib,Yeast UUG start,eIF4H inh
COc1ccc(NC(=O)CCNS(=O)(=O)c2cccc3nonc23)cc1Cl,.,3.8,2.3,3.4,2.6,i,-9.0,-6.1
O=C(N/N=C/c1ccc(Cl)c(Cl)c1)c1ccc2nc[nH]c2c1,37.5,.,-4.4,-10.3,-21.6,i,-18.0,.
CCn1c(CSc2ncccn2)nnc1SCC(=O)N1CCCCC1,-8.9,5.0,4.9,6.0,1.6,i,-18.0,-5.2
Cc1ccc(NC(=O)c2cccc(S(=O)(=O)N3CCc4ccccc4C3)c2)nc1,24.3,.,4.6,-6.3,-4.1,i,-26.8,.
COc1ccc(Cl)cc1NC(=O)[C@@]1(CC(=O)O)CC(/C=C/c2ccccc2)=NO1,.,-6.7,-3.0,-1.6,-6.0,i,-2.2,-0.8
Cc1cccc(Nc2nc(N)nc(CSc3nccn3C)n2)c1,8.2,11.2,1.9,0.7,-153.1,i,-28.7,3.1
O=C(N/N=C/c1cccnc1)c1ccc(NC(=O)C(c2ccccc2)c2ccccc2)cc1,.,-2.2,4.9,2.9,-0.2,i,-8.2,-2.6
COc1ccc([C@H]2CC(=O)C=C(c3ccc4[nH]ccc4c3)C2)cc1OC,2.8,.,3.4,-2.6,-39.6,.,2.7,.
CCOC(=O)C1CCN(C(=O)CCc2nc3sc4c(c3c(=O)[nH]2)CCCC4)CC1,-11.0,.,-6.9,1.6,0.9,i,.,.
Cn1ccc2ccc(C3=CC(=O)C[C@H](c4ccc(F)cc4)C3)cc21,39.5,.,5.1,3.0,6.9,.,-6.9,.
Oc1ccccc1-c1n[nH]c(=S)n1Cc1ccco1,-8.6,3.4,-2.1,2.3,-5.8,i,-24.8,-12.0
CC(=O)Oc1oc(-c2ccccc2)nc1C=Nc1ccc(N(C)C)cc1,-19.9,5.0,1.1,0.2,-0.5,.,2.8,46.3
Cc1nn(C)cc1C(=O)Nc1ccccc1Br,0.8,-3.7,6.4,5.7,.,i,.,6.4
COc1ccc(CC(NC(C)=O)C(=O)NC2CCN(S(=O)(=O)c3cccc4ccccc34)CC2)cc1OC (stereo not given),.,1.6,8.5,0.1,.,i,-11.2,3.0
CCC(CC)C(=O)c1c[nH]c(C(=O)NCc2ccccc2)c1,-6.5,-9.3,-0.9,-3.9,10.1,i,-15.1,-11.1
CCOC(=O)c1cc(C(C)=O)c(=O)n(C)c1N,-16.6,0.3,-2.5,-3.9,-27.2,i,-9.5,-1.2
O=C(CSc1ccc(-c2ccc(Br)cc2)nn1)NCC1CCCO1 (stereo not given),2.0,-3.0,4.8,-4.7,1.3,i,-7.6,3.3
CC(C)(C)c1cc(C(=O)N2CCc3ccccc3C2)ccn1,-5.8,1.6,1.1,-0.7,-0.2,i,-11.2,-15.8
Cc1ccc(C(=O)c2c3ccc(C(F)(F)F)cc3[n+]([O-])n2CCC(N)=O)cc1,-15.4,-0.6,-5.1,-2.7,14.0,i,-9.3,2.9
COc1ccc(NC(=O)c2cnc(C)cn2)c2ncccc12,.,-10.9,.,.,.,i,.,5.2
COCCN(C(=S)Nc1ccccc1C)C(C)c1cccnc1 (stereo not given),-15.2,-0.7,0.4,5.2,-17.0,i,-12.2,43.4
COc1ccc(N2CCN(C(=O)C3(S(=O)(=O)c4ccc(C)cc4)CC3)CC2)cc1,1.4,2.0,-3.2,-2.0,6.4,i,-5.8,-1.7
CCn1c(=O)n(CC)c2cc(N3CCCC3)c(NC(=O)c3ccc(F)cc3)cc21,43.7,-8.4,0.6,-1.5,18.9,i,-19.5,-0.6
CCOC(=O)C1=C(C)N(C)C(=S)NC1c1cc(OC)ccc1OC (stereo not given),7.9,2.6,0.8,1.2,1.2,i,.,3.0
COC(=O)Cc1ccc(NC(=O)c2cccs2)cc1,.,-6.2,-2.7,-5.3,-60.6,i,-17.0,6.2

# Just PABP FP inh and MT1-MMP act inh, for some of the entries so far:
SMILES	PABP FP inh	MT1-MMP act inh
COC(=O)Cc1ccc(NC(=O)c2cccs2)cc1	-6.2	-2.7
CCC(CC)C(=O)c1c[nH]c(C(=O)NCc2ccccc2)c1	-9.3	-0.9
COc1ccc(N2CCN(C(=O)C3(S(=O)(=O)c4ccc(C)cc4)CC3)CC2)cc1	2.0	-3.2
O=C(N/N=C/c1ccc(Cl)c(Cl)c1)c1ccc2nc[nH]c2c1	.	-4.4
Cc1ccc(C(=O)c2c3ccc(C(F)(F)F)cc3[n+]([O-])n2CCC(N)=O)cc1	-0.6	-5.1
COc1ccc(NC(=O)CCNS(=O)(=O)c2cccc3nonc23)cc1Cl	3.8	2.3

# The listing continues.
SMILES,CSC inhib,PABP FP inh,MT1-MMP act inh,MT1-MMP act inh RFP,HIV Env fusion,Rce1 inhib,Yeast UUG start,eIF4H inh
O=C(O)CC1COc2ccccc2N1S(=O)(=O)c1ccc(Br)cc1 (stereo not given),-8.3,16.3,3.4,5.2,1.6,i,-1.5,1.5
COc1ccc2oc(C(=O)OCc3c(C)noc3C)c(C)c2c1,2.5,-4.2,2.2,-2.6,8.1,i,.,2.4
COc1ccc(CN2CCC(n3nccc3NC(=O)CCCc3ccccc3)CC2)cc1C,-1.9,4.5,0.9,-1.7,10.0,i,-14.7,33.9
O=C(Nc1ccc(N2CCCCC2)cc1)c1ccc2ccccc2n1,-11.7,-0.6,7.4,-12.9,-56.9,i,-9.7,-7.4
Cc1ccc(CN2CCC(C(=O)c3ccc(F)cc3)CC2)cc1,.,.,1.4,3.9,-17.9,.,-10.0,.
COC(=O)c1ccc(COC(=O)c2c(C)nn(Cc3ccccc3Cl)c2Cl)o1,-6.2,-4.3,1.6,-2.0,25.3,i,-6.7,-2.2
CCCCCCC(=O)Nc1cc2c(C)cc(=O)oc2cc1C,-13.7,9.9,7.2,1.7,.,i,-1.5,2.9
Cc1cc(Sc2nc(N)ncc2[N+](=O)[O-])ncn1,15.3,9.3,-4.7,-4.5,6.7,.,.,7.6
Cc1ccc(-c2sc(C)nc2CC(=O)O)cc1,-7.7,17.6,-2.4,4.4,.,i,-6.2,4.9
CSC(=CC(=O)c1ccccc1)SC,.,-6.9,6.1,-2.2,-69.8,i,-9.3,-12.8
c1ccc(SCc2nc(-c3ccccn3)no2)cc1,6.3,-9.7,1.8,-2.1,.,i,-27.0,-4.0
CN1CCN(c2ccc(Cl)cc2NC(=O)c2ccc(=O)n(C)n2)CC1,-2.4,4.2,-1.7,-0.8,3.1,i,-18.9,-23.1
COc1ccc(C(=O)C(CN2CCOCC2)c2ccccc2)cc1 (stereo not given),50.0,1.9,-6.0,-17.3,.,i,-20.5,1.9
CN(C(=O)CSc1nncn1C)C1CCCN(Cc2ccccc2F)C1 (stereo not given),-8.5,-2.1,0.2,1.4,-10.4,i,-4.2,-0.9
Cc1ccc(CNC(=O)C2CCCN(S(=O)(=O)c3cnc[nH]3)C2)cc1 (stereo not given),-0.6,12.8,-2.6,5.2,-1.7,i,7.7,2.0
COc1ccc(C(=O)Nc2cccc(S(C)(=O)=O)c2)cc1OC,-13.6,3.1,-2.5,2.6,-25.9,i,-9.2,-4.8
O=C(N/N=C/C1CC2CCC1C2)c1c[nH]c2ccccc12 (stereo not given),0.6,-7.9,0.6,2.6,-14.3,i,.,1.6
Cc1ccc(-c2c(C)n([O-])c3c([n+]2=O)CCCC3)cc1,-12.5,-1.0,0.3,4.2,-2.0,i,.,3.3
Cc1ccc(C)c(Oc2cc(NN3CCCCC3)c([N+](=O)[O-])cc2[N+](=O)[O-])c1,34.3,-4.9,-2.6,-4.4,22.0,i,9.5,-1.8
CC(=O)N1CCC(C(=O)c2ccc(Cl)cc2)CC1,-3.5,1.0,4.0,2.6,17.9,.,-18.7,-10.7
COc1cnc(-c2ccccc2)nc1OC,0.5,0.1,2.8,4.6,34.0,i,.,-10.8
CCOc1ccccc1NC(=O)NC(=O)N(C)S(C)(=O)=O,-7.6,-6.0,0.1,-3.6,-8.8,i,436.2*,3.4
Cc1cccc(C)c1NC(=O)CN(C)C(C)C(=O)NCC(=O)Nc1ccc(F)c(F)c1F (stereo not given),-5.3,.,1.9,-0.8,-4.9,.,-8.0,.
NS(=O)(=O)c1ccc(S(=O)(=O)N2CCCC2)cc1,-6.4,16.8,-1.3,0.6,-17.3,i,-7.8,-1.1
COc1ccc(NC(=S)N2CCCC2)cc1,-5.7,-6.1,3.8,4.8,-2.8,i,.,-0.7

# Complete entries, quoted from the list. Order of screens: CSC inhib, PABP FP inh, MT1-MMP act inh, MT1-MMP act inh RFP, HIV Env fusion, Rce1 inhib, Yeast UUG start, eIF4H inh
# Cc1ccc(C)c(Oc2cc(NN3CCCCC3)c([N+](=O)[O-])cc2[N+](=O)[O-])c1 is listed with 34.3, -4.9, -2.6, -4.4, 22.0, i, 9.5, -1.8
# CCOc1ccccc1NC(=O)NC(=O)N(C)S(C)(=O)=O is listed with -7.6, -6.0, 0.1, -3.6, -8.8, i, 436.2*, 3.4

# The listing continues.
SMILES,CSC inhib,PABP FP inh,MT1-MMP act inh,MT1-MMP act inh RFP,HIV Env fusion,Rce1 inhib,Yeast UUG start,eIF4H inh
CC1=C(C(=O)OC(C)(C)C)C(c2ccco2)C(C#N)=C(N)O1 (stereo not given),-10.5,36.9,4.4,2.4,.,i,-8.5,43.2
O=C(/C=C/c1ccccc1)Oc1ccc(C(=S)N2CCOCC2)cc1,-11.4,21.0,3.3,-3.1,1.4,i,.,-4.9
O=C(NCc1nc2ccccc2[nH]1)C1=C[C@H](c2ccc(Br)cc2)C[C@H](OCc2ccc(CO)cc2)O1,-4.8,1.3,3.0,-3.1,-40.5,i,-14.6,-2.8
O=C(NCC1CCCO1)c1c(O)c2cccc3c2n(c1=O)CCC3 (stereo not given),20.2,-7.4,3.7,7.2,.,i,-4.3,-8.0
CC1(C(=O)NCc2cccs2)Cc2c(-c3ccccc3)ccnc2O1 (stereo not given),.,.,-2.5,-16.7,-160.0,.,-2.4,.
COc1cc2cc(C(=O)N/N=C/c3ccccc3Cl)[nH]c2cc1OC,19.5,17.2,11.4,-3.6,15.5,i,-5.9,5.5
CC12CCC(C/C1=N\N=C1\NC(=O)/C(=C\c3ccc(Cl)cc3)S1)C2(C)C (stereo not given),122.1*,-18.1,12.5,-8.8,-12.4,i,.,-14.0
Cn1cnc2c(oc3ccccc32)c1=O,-8.1,.,-1.2,2.7,-0.6,i,-20.2,.
CCOc1ccccc1Nc1ncnc2c1cnn2-c1ccccc1,-6.2,-0.5,1.8,0.4,-10.9,i,-17.1,-5.3
O=C(NCc1ccccn1)C1CCCN(S(=O)(=O)c2cccc3nsnc23)C1 (stereo not given),-7.8,7.0,2.2,5.6,-53.3,i,-10.7,10.4
N=c1oc2ccc(Br)cc2cc1C(=O)NCc1ccccc1,2.0,6.6,1.6,5.0,-7.2,i,4.1,4.3
O=C(Nc1nncs1)C(Sc1ccccc1)c1ccccc1 (stereo not given),-12.0,-4.7,-4.1,-3.2,.,i,.,5.2
C/C(Cn1nc([N+](=O)[O-])cc1C)=N\NC(=O)COc1ccccc1[N+](=O)[O-],-18.7,4.5,1.5,2.5,8.1,i,.,1.0
CN(CC(=O)Nc1cccc(F)c1)C(=O)/C=C/c1ccc2ccccc2n1,-2.2,9.1,-4.0,3.3,2.2,i,-6.3,4.1
CC1=NC(C(F)(F)F)(C(F)(F)F)C(C#N)=C(C)N1,-5.8,-10.4,1.4,2.2,.,i,-29.0,-7.0
COc1ccc(OCCC(=O)NCC23CC4CC(CC(C4)C2)C3)cc1,-0.4,8.9,-2.0,-2.8,34.6,i,-0.1,2.4
O=C(Nc1nnc(S(=O)(=O)N2CCOCC2)s1)c1cccc(Br)c1,21.8,1.1,-1.0,-8.1,-15.6,i,-17.3,2.8
COc1ccc(OC)c(-n2c(CNC3CCN(Cc4ccccc4)CC3)nc3ccccc3c2=O)c1,0.9,9.6,1.6,-2.7,-21.0,i,-7.8,-1.6
Cc1ccc(-c2cn3c(=O)cc(C)[nH]c3n2)cc1,3.4,7.1,-3.1,-0.7,-347.1,i,-18.3,-18.2
Cc1cc2nc(CSc3ccccc3)cc(=O)n2[nH]1,25.0,17.3,1.1,3.2,5.6,i,.,3.8

# Source: PubChem BioAssay (several laboratories)
